Screens: PubChem, ICCB-Longwood Screening Facility, Harvard Medical School
MenB inh: blocks the Mycobacterium tuberculosis MenB enzyme. 100,000 compounds, 0.43% hits. inhibition, %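 (about 12 µg/mL by stock and volumes)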. MenB enzyme assay, absorbance read-out; some hits fall short of the stated cut. P9WNP5;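 active means mean of two replicates above 30%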;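 further: 0% = no compound and 100% = wells with inactive enzyme; the first replicate is given; strong numbers were not always called active; inactives centre near -10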
Target sequence (P9WNP5 whole entry, looked up): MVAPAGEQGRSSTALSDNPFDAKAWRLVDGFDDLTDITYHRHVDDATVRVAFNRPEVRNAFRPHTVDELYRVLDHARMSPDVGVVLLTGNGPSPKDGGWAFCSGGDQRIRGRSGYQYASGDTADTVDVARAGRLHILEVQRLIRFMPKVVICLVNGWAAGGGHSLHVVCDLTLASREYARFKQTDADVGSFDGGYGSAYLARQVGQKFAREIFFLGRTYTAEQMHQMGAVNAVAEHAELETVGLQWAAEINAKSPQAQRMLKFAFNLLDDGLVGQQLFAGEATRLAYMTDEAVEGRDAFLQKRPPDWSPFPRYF
Mtb MbtI inh: MbtI salicylate synthase inhibition. P9WFX0. purified MbtI enzyme, fluorescence intensity read-out. inhibition, %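 (about 17 µg/mL by stock and volumes)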. 100,000 compounds, 0.89% hits. AID 493033;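 active means above 50% in both replicates, above 80% if mildly self-fluorescent; inactive means the rest, strongly fluorescent compounds included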;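 further: 0% = mean of negative and 100% = mean of positive controls; one replicate is shown; some compounds called inactive have numbers as strong as hits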
Target sequence (P9WFX0 whole entry, looked up): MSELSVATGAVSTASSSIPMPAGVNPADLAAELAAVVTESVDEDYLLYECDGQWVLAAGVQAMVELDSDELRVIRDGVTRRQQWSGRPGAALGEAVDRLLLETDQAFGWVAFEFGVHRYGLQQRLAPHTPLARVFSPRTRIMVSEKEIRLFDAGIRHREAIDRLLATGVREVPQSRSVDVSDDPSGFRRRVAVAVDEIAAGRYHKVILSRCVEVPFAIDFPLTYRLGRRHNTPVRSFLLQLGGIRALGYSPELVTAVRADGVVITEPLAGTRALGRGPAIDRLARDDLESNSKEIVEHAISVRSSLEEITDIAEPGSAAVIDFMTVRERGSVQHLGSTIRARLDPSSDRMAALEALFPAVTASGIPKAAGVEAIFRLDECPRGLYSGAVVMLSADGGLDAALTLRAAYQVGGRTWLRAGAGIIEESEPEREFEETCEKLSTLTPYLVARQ
PV pol inh: poliovirus RNA polymerase inhibition | % elongation, % (compound at 16.7 µg/mL) | 150,000 compounds, 0.66% hits | poliovirus polymerase elongation, fluorescence polarization; stronger effect = lower value | AID 588519; in the data active means % elongation below about 90%; further: some results filed as inactive read as strong as hits
PV pol inh intensity: also measured in PV pol inh; calls as there; % elongation; measured here: total intensity read-out; formula for this scale not given here;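 total fluorescence in place of polarization; lower means less elongation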
Active calls of the source: *; x = no result given; & = joins results of further samples.

SMILES	MenB inh	Mtb MbtI inh	PV pol inh	PV pol inh intensity
CN(C)S(=O)(=O)c1ccc(=O)n(CC(=O)Nc2ccc3[nH]c(=O)[nH]c3c2)c1	2	2	100	103
Cc1cc(C)cc(NC(=O)CCC2=NS(=O)(=O)c3ccccc3N2)c1	-15	-13	101	105
CS(=O)(=NS(=O)(=O)c1cc(S(=O)(=O)c2ccccc2)cs1)c1ccc(Cl)cc1 (configuration not stated)	-18	-7	104	115
CC1(C)O[C@@H]2[C@@H](CO[C@@]3(COS(N)(=O)=O)OC(C)(C)O[C@@H]23)O1	-2	-19	101	103
CCOC(=O)/C=c1\[nH]c(=O)/c(=C\c2ccc3c(c2)OCO3)s1	-21	-10	126	146
CN(C)S(=O)(=O)c1ccc(C(=O)N2CCN(Cc3ccc4c(c3)OCO4)CC2)cc1	-13	-24	100	103
COc1c(Cl)cccc1-c1cn2ccc(C)cc2n1	8	94	103	106
O=C(O)C1(S(=O)(=O)c2ccc(Br)cc2)CCCC1	-6	4	104	107
CCn1c(=O)cc(SCC(=O)N2CCC(C)CC2)c2ccccc21	-15	14	103	100
COC(=O)c1c(C)[nH]c(C(=O)CSc2nnc3cc(C)c4ccccc4n23)c1C	-11	10	101	103
COc1cccc(NC(=O)CN(C)C(C)C(=O)Nc2cc(Cl)ccc2OC)c1 (configuration not stated)	-29	-8	103	110
COC(=O)c1ccc(CN2c3cccc4cccc(c34)S2(=O)=O)o1	-84	0	102	106
N/N=c1\nc2[nH]n(-c3ccccc3)c(=O)c2c2n1CCC2	-17	-1	106	108
O=C(NN(c1ccccc1)c1ccccc1)c1ccc(S(=O)(=O)N2CCOCC2)cc1	-13	-9	109	114
Cc1nn(C)c(Cl)c1S(N)(=O)=O	13	7	103	96
CC1=CC(=O)C(C(=O)/C=C/c2ccc(Cl)cc2)C(=O)O1 (configuration not stated)	x	0	106	111
Cc1cc(C(=O)COc2ccccc2C(N)=O)c(C)n1C1CC1	-11	-14	105	106
CC(C)CC(=O)Nc1ccc(S(=O)(=O)NCc2ccco2)cc1	-47	-14	107	99
N#Cc1ccccc1S(=O)(=O)N1CCOCC1	-23	7	100	101
COC(=O)/C=C1/OC(c2ccccc2)=CC1=O	-25	89*	139	161

Four entries from above, with bars between the fields.
SMILES | MenB inh | Mtb MbtI inh | PV pol inh | PV pol inh intensity
Cc1cc(C)cc(NC(=O)CCC2=NS(=O)(=O)c3ccccc3N2)c1 | -15 | -13 | 101 | 105
Cc1nn(C)c(Cl)c1S(N)(=O)=O | 13 | 7 | 103 | 96
CN(C)S(=O)(=O)c1ccc(C(=O)N2CCN(Cc3ccc4c(c3)OCO4)CC2)cc1 | -13 | -24 | 100 | 103
CC1(C)O[C@@H]2[C@@H](CO[C@@]3(COS(N)(=O)=O)OC(C)(C)O[C@@H]23)O1 | -2 | -19 | 101 | 103

Next part
SMILES	MenB inh	Mtb MbtI inh	PV pol inh	PV pol inh intensity
Cc1nn(Cc2ccccc2)c(Cl)c1/C=C/C(=O)OCC(=O)N1CCN(C(=O)c2ccco2)CC1	-3	8	99	98
Cc1ccc(Cl)cc1NC(=O)N1CCC(CN2CCOCC2)CC1	-19	-7	102	106
COc1ccc(C(=O)Nc2ccccc2C(=O)Nc2ccccn2)cc1	-7	-1	102	102
OC(COc1ccc(Nc2ccccc2)cc1)COc1ccc(Nc2ccccc2)cc1	-36	x	103	109
CCOC(=O)c1c(N)cc2[nH]c(=S)[nH]c(=O)c2c1-c1ccccc1	-34	x	100	100
CC1CN(c2nc(N3CCCC3)nc3ccccc23)CC(C)N1 (configuration not stated)	-36	-146	102	100
CCN1CCN(C(=O)C23CC4CC(C2)CC(c2ccc(C)cc2)(C4)C3)CC1	-15	-7	111	109
Oc1ccccc1C1=CC(c2ccc(Br)cc2)n2ncnc2N1 (configuration not stated)	-41	7	103	103
N#Cc1c(N)n(CCN2CCOCC2)c2nc3ccccc3nc12	-79	65	99	107
O=c1cc(O)c2sc(Nc3ccccc3)nc2[nH]1	-8	x	97	101
CCCNC(=O)C1CCN(c2nn3cc(-c4ccc(OC)cc4)nc3s2)CC1	-3	16	99	98
NC(=S)NN=C1c2cc(S(=O)(=O)N3CCOCC3)ccc2-c2ccc(S(=O)(=O)N3CCOCC3)cc21	-92	8	102	101
O=C(Nc1cccc(F)c1)N1CCOCC1	3	-3	103	102
CCCNC(c1ccccc1)c1ccncc1 (configuration not stated)	-61	-8	103	101
CCN(C(C)=O)c1ccccc1C	-26	x	117	105
Cc1cc(C)n2c(SCC(=O)N(C)C3CCCCC3)nnc2n1	-52	-3	104	102
S=c1nc2ccccc2c2nc(-c3cccnc3)[nH]n12	-47	6	100	107
COc1ccc(NC(=O)C2CCCCC2)cc1	-16	-15	102	102
COC(=O)c1sccc1S(=O)(=O)NCc1ccc(S(N)(=O)=O)cc1	-1	5	102	102
CC(=O)Nc1ccc(-c2nc(-c3ccccc3)no2)cc1	-25	-67	101	107
O=c1cc(-c2cc(Cl)cc3c2OCOC3)oc2ccc(F)cc12	x	-15	100	106
O=C(NCCN1CCC(Cc2ccccc2)CC1)c1ccc(-c2ccccc2)s1	3	20	101	105
Cc1cccc(NC(=O)c2ccccn2)c1	-15	17	101	101
Cc1ccc(S(=O)(=O)CCc2nnc(N)s2)cc1	-14	-8	102	102
C[C@@]1(O)CCOC(=O)C1	1	-1	100	99
Cn1ccc2cc(N)ccc21	15	68	99	102
CC1(C)Cc2c(C#N)c(SCCc3ccccc3)nc(N3CCOCC3)c2CO1	-4	-12	101	102
Cc1ccccc1OCC(=O)NCCN1CCCC1	-56	-9	101	103
C=C(C)[C@H]1O[C@H]2CC[C@@]3(C)[C@@](O)(CC[C@H]4[C@@H]5OC(C)(C)[C@H]6C[C@@H]7C(=C)Cc8c(Cl)cc9[nH]c(c5c9c8[C@@]76O)[C@@]43C)[C@]23O[C@@H]3[C@H]1O	5	x	103	105
CCCN(CCC)S(=O)(=O)c1cccc(C(=O)Nc2ccccc2C(=O)NC2CC2)c1	2	-5	100	106
CC1(C)CC(CC#N)(Cc2ccccc2)CCO1 (configuration not stated)	-5	-1	102	103
Cc1cccc(-c2nn(-c3ccc(F)cc3)cc2C(=O)N2CCN(CCO)CC2)c1	-14	-8	105	112
COc1ccc(OCCCC(=O)n2c(C(C)O)nc3ccccc32)cc1 (configuration not stated)	-6	-14	103	101
COc1cc2c(cc1OC)CN(S(=O)(=O)c1ccc(-n3cnnn3)cc1)CC2	13	1	101	102
CCOc1cc(/C=C2/SC(=NC)N(C)C2=O)ccc1OCC(N)=O	-14	x	101	107
CCCN1CCC(N(C)CC(=O)OCC)CC1	-20	-13	101	103
O=C(O)/C=C/C(=O)N1CCC(Cc2ccccc2)CC1	x	-5	104	106
CC1CCCC(NC(=O)C2c3ccccc3C(=O)N2CCc2ccccc2)C1C (configuration not stated)	-2	-13	102	101
c1ccc(COc2ccc(Oc3ncccn3)cc2)cc1	-3	15	101	105
COC(=O)C1CCN(c2ncnc3scc(-c4ccccc4)c23)CC1	-19	28	102	102
Cc1ccc(C)c(NC(=O)c2ccco2)c1	-5	x	103	106
COc1cccc(Nc2nc(=O)[nH]nc2C)c1	-24	-7	104	106
Cc1[nH]c(=O)[nH]c(=O)c1S(=O)(=O)N1c2ccccc2CC1C (configuration not stated)	2	11	91	184
CS(=O)(=O)c1ccc2nc(NC(=O)c3ccccc3Br)sc2c1	-8	x	101	98
Cc1noc(C)c1COC(=O)C(Cc1ccccc1)NC(=O)c1cccs1 (configuration not stated)	-12	-8	104	110
COc1ccc(CNC(=O)CN2CCN(S(=O)(=O)c3ccccc3)CC2)cc1	-2	-9	109	111
COc1cc(NC(C)C(=O)N2CCCCC2)cc(OC)c1 (configuration not stated)	-8	3	100	107
CC(=O)Oc1ccccc1C(=O)Oc1ccccc1C(=O)O	-3	-79	97	104
O=C(Nc1ccccc1)C1Cc2cc(Cl)ccc2O1 (configuration not stated)	-1	-10	97	96
O=C(Cc1n[nH]c(=O)c2ccccc12)Nc1cc(C(F)(F)F)ccc1N1CCCC1	-25	11	101	108
CCN1C(=O)/C(=C2\SC(=Nc3ccc(Cl)cc3)N(C)C2=O)c2ccccc21	-3	-12	99	104
CC1CCCCC1NC(=O)CO/N=C/c1ccc2c(c1)OCO2 (configuration not stated)	-5	-4	102	111
CC12CN3CC(C)(CN(C1)C31C(=O)Nc3ccccc31)C2O (configuration not stated)	-4	-16	101	104
CC1=C/C(=N/Nc2nc3ccccc3[nH]2)CC(C)(C)C1	-9	-5	137	156
Cc1ccc(C)c(C(=O)/C=C/C(=O)O)c1	67*	x	102	101
CC1=NN(c2ccccc2)C(=O)C1=C(C)C	-61	-11	104	107
CC(C)CC(=O)Nc1ccccc1C(N)=O	5	-32	101	104
COc1ccccc1/C=C/C(=O)O	-19	70	103	105
COCCn1c(N)c(C(=O)C(C)(C)C)sc1=S	-24	2	101	101
Cc1ccc(-c2csc(NC3OC(=O)c4c#cccc43)n2)cc1 (configuration not stated)	12	1	101	101

Continued:
SMILES	MenB inh	Mtb MbtI inh	PV pol inh	PV pol inh intensity
CCN1C(=O)/C(=C\c2ccc(NC(=O)c3ccccc3Br)cc2)SC1=S	x	5	123	161
CN(Cc1cccc(Cl)c1Cl)C(=O)c1cc(Cl)ccn1	4	-10	103	115
C=CCn1c(SCC(=O)N(CC(C)C)CC(C)C)nc2scc(-c3ccco3)c2c1=O	7	15	102	99
N#Cc1c(NC(=O)COC(=O)c2ccc(F)cc2)sc2c1CCC2	-7	x	103	100
CCCCCCn1c(CN2CCC(C(N)=O)CC2)nc2c1c(=O)n(C)c(=O)n2C	2	-9	99	105
CCCc1cc(=O)c2c(=O)n(-c3ccccc3)[nH]c2[nH]1	1	40	103	104
CCCC(=O)Nc1ccc(C(=O)NCC2CCCO2)cc1 (configuration not stated)	-17	-4	100	102
CCNC(=O)c1ccc(Cl)s1	4	x	106	109
O=C(Nc1ccncc1)OCc1ccccc1	-11	-10	100	101
CC1C=Cc2ccccc2N1C(=O)c1ccccc1 (configuration not stated)	x	-9	100	101
C(=N\N1CCCCC1)/c1ccc2c(c1)OCO2	-33	-7	108	100
COc1ccc(Cc2nc(-c3ccccc3)n[nH]c2=S)cc1	-25	21	104	112
Cc1ccc(C)c(NC(=O)OCC(C)C)c1	-29	-16	105	100
COC(=O)c1cc(=O)n(-c2ccccc2)c(=Nc2ccccc2)s1	-13	8	102	107
CCOc1ccc(N2CC(C(=O)N(Cc3ccccc3)c3ccccn3)CC2=O)cc1 (configuration not stated)	5	-4	100	101
C[n+]1cc(C(=O)NCC[N+](C)(C)Cc2ccccc2)ccc1/C=N/O	0	-8	103	103
CN1CC(=O)N(CN2CCN(S(=O)(=O)c3ccc(Br)cc3Cl)CC2)C1=O	-20	1	107	109
CCN(CC)S(=O)(=O)c1ccc(Oc2ccc(Cl)cc2C)nc1	-21	0	100	98
CCOC(=O)c1c(NC(=O)CC)sc(C(=O)OC)c1C	1	-2	102	101
Cc1ccc(S(=O)(=O)Nc2c(C(=O)NCc3ccco3)c3nc4ccccc4nc3n2Cc2ccco2)cc1	-38	-50	113	122

Some of the entries above, reformatted.
SMILES: CC1C=Cc2ccccc2N1C(=O)c1ccccc1 (configuration not stated)
  MenB inh: x; Mtb MbtI inh: -9; PV pol inh: 100; PV pol inh intensity: 101

SMILES: C(=N\N1CCCCC1)/c1ccc2c(c1)OCO2
  MenB inh: -33; Mtb MbtI inh: -7; PV pol inh: 108; PV pol inh intensity: 100

SMILES: COc1ccc(Cc2nc(-c3ccccc3)n[nH]c2=S)cc1
  MenB inh: -25; Mtb MbtI inh: 21; PV pol inh: 104; PV pol inh intensity: 112

Going on with the list.
SMILES	MenB inh	Mtb MbtI inh	PV pol inh	PV pol inh intensity
C=C(C)Cn1c(CO)nc2ccccc21	-16	-12	101	100
NC(N)=NC(=O)c1nc(Cl)c(N)nc1N	-2&-1&11	-62&-4&-43	104&103&99&98	103&101&101&100
O=C(O)c1ccc(CNC(=O)c2cocc2C(=O)O)o1	11	x	81	99
NC(=O)CSc1nc(N)nc(N)n1	-3	-4	104	107
Cc1nnsc1C(=O)NC1CCCCCC1	7	4	98	94
O=C(NCCOc1nnc(-c2ccccc2)o1)c1ccco1	-22	-12	107	99
COc1ccc(OCc2nnc(SCC(=O)NCc3ccco3)o2)cc1	-31	-12	103	100
O=C(NCC(F)(F)F)c1ccc2ccccc2n1	-34	11	106	108
O=C(Cn1cnc2ccccc2c1=O)c1ccc(Cl)cc1	-4	x	110	108
Cc1ccc2nc(NC3=NC(CC(=O)O)C(=O)N3)nc(C)c2c1 (configuration not stated)	-12	104	103	102
CCN1C(=O)/C(=C\c2ccc(N(C)C)cc2Cl)OC1=S	-17	x	43	243
CCC(=O)NC1CCNCC1	11	-5	100	101
Cc1cc(-c2csc(N)n2)c(C)n1CC1COc2ccccc2O1 (configuration not stated)	-3	2	100	106
CC(C)c1ccc(N2C(=O)C3N=NN(CC(=O)Nc4ccccc4)C3C2=O)cc1 (configuration not stated)	-11	0	102	102
O=C(Nc1ccccc1)NC1(C(=O)Nc2ccc(-n3cnnn3)cc2)CCCCC1	0	-11	100	100
CC(=O)NC(Nc1cc(C)ccc1C)C(=O)c1ccccc1 (configuration not stated)	-24	9	100	102
N#CC(C#N)=C(C(C#N)=C1Nc2ccccc2N1)c1ccccc1F	-12	1	99	102
COc1ccc(C2CCCN2C(=O)Nc2ccc(Cl)cc2)cc1OC (configuration not stated)	-1	-2	99	100
O=C1CCCCC1CNc1cccc(C(F)(F)F)c1 (configuration not stated)	-7	-16	99	104
